Screens: PubChem BioAssay, National Center for Advancing Translational Sciences (NCATS)
MARV entry inh = Marburg virus entry inhibition; Marburg virus pseudotyped entry inhibition, cell reporter; control for the full effect not named in the record; about a third of the inactives were read at about 46 µM; Potency, µM (titrated, usually from 37.8 µM), for inactives: at the top dose activity change, negative = inhibition, hits mostly inhibitors; 1.8% of 300,000 active; AID 540276; active = well fitted inhibition curve with a large enough effect; inconclusive = small, poorly fitted or top-dose-only effect, or effect the other way; inactive = flat fitted curve, though single readings scatter; tested in HEK293 cells; about a fifth of its hits are not listed in these tables; also: % is scaled to controls: 0 for no effect and ±100 for the full control effect; luciferase read-out
NS1 inh = influenza NS1 inhibition; 0.4% of 270,000 active; Potency, µM (highest dose often 46.1 µM), inactives show at the highest dose activity, positive = more growth; S. cerevisiae slowed by influenza A NS1, growth recovery by OD600; also: actives are rising curves; nearly all actives have a fitted effect of over 50% in size
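OD600 was taken as the measure of yeast growth restored by compound in an NS1-expressing S. cerevisiae strain. Cells had been washed out of glucose medium and diluted 1:100 into galactose -URA medium, pH 6.0.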
RE007 growth inh = less growth of the S. pombe RE007 Vpr strain; S. pombe RE007 Vpr strain, BacTiter-Glo ATP luminescence, 24 h; control for the full effect not named in the record; Potency, µM (top dose mostly 92.2 µM), for the others: at the top dose activity change, negative = less growth; 0.21% of 360,000 active; active = well fitted falling curve with a large enough effect; inconclusive = small, poorly fitted or top-dose-only effect; inactive = no such curve, though single readings can be large or run the other way;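 also: % is scaled to controls: 0 for no effect and ±100 for the full control effect; nearly all actives have a fitted effect of over 50% in size; the assay follows cell death caused by Vpr and the record does not say whether a fall means rescue or toxicity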
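Fission yeast strain RE007, carrying one chromosomally integrated HIV-1 vpr copy, was seeded at OD 0.01 in PMG+AL medium with 23 nL pinned compound. After 24 h at 30 °C and 99% humidity, viability was read by BacTiter-Glo luminescence.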
Cruzain inh noDet = inhibitors of Trypanosoma cruzi cruzain without detergent; purified cruzain, Z-FR-AMC fluorescence, no detergent; 2.3% of 200,000 active; Potency, µM, without a hit: max response, negative = inhibition, most hits filed as inhibitors; AID 1476; active = well fitted curve in the direction sought with a large enough effect; inconclusive = small, poorly fitted or top-dose-only effect, or another doubt; inactive = no such curve, though single readings can be large; an effect the other way counts as inactive or inconclusive;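 also: plate controls were enzyme without inhibitor for no effect and buffer without enzyme for full effect; nearly all actives have a fitted effect of over 40% in size; top concentration of the series not given in the record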
Target sequence (P25779 123-467 limits assumed): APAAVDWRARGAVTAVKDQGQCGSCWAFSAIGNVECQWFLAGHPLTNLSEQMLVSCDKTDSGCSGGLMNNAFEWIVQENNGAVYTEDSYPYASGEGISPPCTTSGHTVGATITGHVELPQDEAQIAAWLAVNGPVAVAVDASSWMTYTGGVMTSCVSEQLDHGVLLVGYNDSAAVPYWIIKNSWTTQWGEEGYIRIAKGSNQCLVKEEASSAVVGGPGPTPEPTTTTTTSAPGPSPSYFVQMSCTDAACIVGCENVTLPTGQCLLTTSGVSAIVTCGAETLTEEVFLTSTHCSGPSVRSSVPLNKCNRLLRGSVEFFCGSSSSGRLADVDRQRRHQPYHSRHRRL
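Detergent-free condition (0.00005% Triton X-100) in acetate buffer pH 5.5 with DTT. 1.5 nM enzyme and compound were pre-mixed 15 min, then 2 uM Z-FR-AMC substrate added; reaction progress from fluorescence change between first and third reads (60 s).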
Cruzain Triton = cruzain (T. cruzi) inhibition with detergent | P25779 | purified cruzain, Z-FR-AMC fluorescence, 0.01% Triton | Potency, µM, inactives show max response, negative = inhibition, usual class: inhibitors | 0.43% of 200,000 active | AID 1478; active = well fitted curve in the direction sought with a large enough effect; inconclusive = small, poorly fitted or top-dose-only effect, or another doubt; inactive = no such curve, though single readings can be large; an effect the other way counts as inactive or inconclusive;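 also: plate controls were neutral wells for no effect and buffer without enzyme for full effect; nearly all actives have a fitted effect of over 40% in size; top concentration of the series not given in the record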
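Steps: dispense cruzain (1.5 nM final) in acetate buffer pH 5.5 with DTT and 0.01% Triton X-100; pin-transfer compounds; incubate 15 min RT; add Z-FR-AMC (2 uM final); read fluorescence every 30 s, using the 60 s intensity change.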
SARS PLP yeast = blocks SARS-CoV papain-like protease in a yeast assay | S. cerevisiae expressing SARS-CoV PLpro, growth rescue; control for the full effect not named in the record | Potency, µM (series often up to 32.9 µM), for the others: at the highest dose activity, positive = growth rescue | 0.19% of 330,000 active | AID 485353; also: 0% is about no effect; nearly all actives have a fitted effect of over 55% in size; growth read by luminescence after 48 h
2A StopGo = lowers the luciferase signal of an FMDV 2A StopGo reporter; Potency, µM (titrated, usually from 57.9 µM), inactives show at the highest dose signal change, negative = less light; human cells with a luciferase reporter of 2A StopGo recoding; control for the full effect not named in the record; 1.2% of 410,000 active; AID 1159524; active = well fitted falling curve with a large enough effect; inconclusive = small, poorly fitted or top-dose-only effect; inactive = no such curve, though single readings can be large or run the other way; tested in HEK293T cells; also: % is scaled to controls: 0 for no effect and ±100 for the full control effect; nearly all actives have a fitted effect of over 45% in size; luciferase light after 4 h
LASV entry inh = blocks Lassa virus binding to or entry into cells; Lassa virus pseudotype entry inhibition, cell reporter; control for the full effect not named in the record; Potency, µM (top dose mostly 37.9 µM), for inactives: at the highest dose activity change, negative = inhibition, actives largely listed as inhibitors; 1.2% of 300,000 active; AID 540256; active means well fitted inhibition curve with a large enough effect; inconclusive means small, poorly fitted or top-dose-only effect, or effect the other way; inactive means flat fitted curve, though single readings scatter; tested in HEK293 cells; also: % is scaled to controls: 0 for no effect and ±100 for the full control effect; nearly all actives have a fitted effect of over 50% in size; luciferase read-out
* = called active by the depositor; ? = inconclusive; · = no result given; & = joins results of further samples; [ ] = dose if it differs, or a comment. Unless noted, calls follow the shape of the dose curve; as a rule, active means well fitted rising curve with a large enough effect; inconclusive means small, poorly fitted or top-dose-only effect; inactive means no such curve, though single readings can be large or run the other way. Potency is read from the fitted curve at half-maximal effect.

SMILES | MARV entry inh | NS1 inh | RE007 growth inh | Cruzain inh noDet | Cruzain Triton | SARS PLP yeast | 2A StopGo | LASV entry inh
CC(NCC(O)COc1ccc(Br)cc1)c1ccccc1 (stereo unspecified) | · | -2.0% | -0.6% | · | · | -21.9% | 1.1% | ·
COc1ccc(-c2c(C(=O)O)nc3ccccc3c2C(=O)O)cc1 | 6.6% | 5.7% | -14.1% | -1.7% | 7.6% | -0.4% | 5.2% | -0.2%
COc1ccccc1-c1nnc(SCC(=O)c2ccc(F)cc2)n1-c1ccccc1 | -6.5%[46.1 µM] | · | · | ? | -4.7% | · | 13.4% | ?
CC1Cc2ccccc2N1C(=O)CSc1ccccc1 (stereo unspecified) | 23.8% | 2.4% | -19.5% | -7.2% | -1.2% | -3.6% | 0.0% | 21.4%
CC1CCCN(C(=O)Cn2nnc(-c3ccc(F)cc3)n2)C1 (stereo unspecified) | 19.3%[46.1 µM] | 8.4% | -10.0% | · | · | -1.7% | 5.5% | 20.2%
CC(C)NC(=O)NC(=O)COc1c(F)c(F)cc(F)c1F | 18.0% | 3.4% | 19.0% | -7.5% | -0.4% | 10.1% | -15.1% | 9.2%
O=C(NNc1nc2ccccc2s1)Nc1ccc(Cl)c(Cl)c1 | · | 3.2% | -1.7% | · | · | -2.5% | -8.9% | ·
COC(=O)C1C(O)=C(C=Nc2ccc3ccccc3c2)C(=O)CC1(C)C (stereo unspecified) | · | -22.1% | 1.4% | · | · | -5.2% | -9.5% | ·
COC(=O)[C@@H]1C[C@H]1[C@@H](NC(=O)c1cc(C)on1)c1ccccc1 | · | · | 1.9% | 3.9% | 0.0% | · | -4.8% | ·
CCCc1cc(=O)oc2cc(C)cc(OCC(=O)O)c12 | 13.1% | -1.5% | 1.0% | -3.9% | -10.6% | -1.5% | 22.0% | 7.1%
O=C(N/N=C/C=C\c1ccco1)c1cccnc1 | 4.6% | 11.4% | 2.4% | -8.7% | -5.0% | -18.8% | 22.6% | 24.7%
COc1cc(O)c(C(CC(=O)N2CCN(c3ccccc3)CC2)c2cc(OC)c(OC)c(OC)c2)c(OC)c1 (stereo unspecified) | · | -11.1% | 1.4% | · | · | -0.9% | 10.8% | ·
CCc1ccc(NC(=O)CSc2ccc(-c3cccnc3)nn2)cc1 | · | 7.7% | 15.8% | · | · | 4.2% | -18.9% | ·
COc1ccc(C2C(C#N)=C(N)Oc3n[nH]c(-c4ccccn4)c32)c(OC)c1OC (stereo unspecified) | -12.8%&-12.8% | ? | -9.1% | 7.8% | -3.3% | 1.9% | -12.2% | 0.5%
CCOC(=O)CC1C(=O)NCCN1C(=O)c1ccc(Cl)cc1Cl (stereo unspecified) | ? | 1.5% | -1.7% | · | · | 5.8% | -2.2% | -12.1%[46.1 µM]
Cc1occc1C(=O)NNC(=O)c1nn(C)c(=O)c2ccccc12 | -10.6%[46.1 µM] | · | -10.9% | · | · | -5.8% | -3.5% | -21.1%[46.1 µM]
CCOc1ccc(NC(=O)CC2C(=O)N(c3cccc(OC)c3)C(=O)N2CCOC)cc1 (stereo unspecified) | · | 6.1% | -12.1% | · | · | 2.6% | 8.4% | ·
NC(=O)c1cccnc1Oc1cccc(Cl)c1 | 4.6% | 1.5% | 11.9% | 7.4% | 4.3% | 3.4% | -2.3% | 9.8%
CCCCc1nc(SCC(=O)N2CCCC2)c2c(=O)n(C)c(=O)n(C)c2n1 | · | -2.3% | 11.9% | · | · | -2.3% | -23.9% | ·
CSc1ccc(-c2ccco2)nn1 | 23.1% | · | -16.2% | · | · | -0.6% | 56.5%[activator] | -1.9%
COc1ccccc1NC(=S)NNC(=O)c1nn(C)c(C)c1Br | 13.7% | -14.0% | -0.5% | -2.1% | -2.1% | 15.8µM* | 58.3%[activator] | 6.5%
COc1cc(C(=O)Nc2ccc(Br)cc2C(=O)c2ccccc2Cl)cc(OC)c1OC | -4.7% | -6.0% | -17.8% | 3.9% | -2.0% | 13.3% | -26.9% | -6.4%
Fc1ccc(-c2nnc(N3CCOCC3)c3ccccc23)cc1F | -12.6%[46.1 µM] | 23.8% | 9.7% | · | · | 10.3% | -15.8% | 3.2%
CCOc1ccc(C(=O)c2ccncc2)cc1 | 2.1% | -10.7% | -6.1% | 6.3% | -3.0% | -0.1% | · | -5.4%
COc1ccc2nc3oc(C(=O)Nc4ccc(OC)c(OC)c4)cc3cc2c1 | ? | ? | -8.1% | ? | 3.8% | -4.3% | -26.2% | -9.7%
CCOC(=O)/C(=C/c1c2ccccc2cc2ccccc12)NC(=O)c1ccccc1 | -19.5%&-19.5% | -5.2% | -3.6% | -4.9% | -4.3% | -15.9% | -27.8% | -10.3%
COC(=O)C1C(O)C(C)C(O)C(C)/C=C\C=C(/C)C(=O)Nc2c(C)c(OC(C)=O)c3c(c2O)C(=O)C(C)=C2OCOC(=C23)/C(C)=C/C(C)(O)C(O)C(C)C1O (stereo unspecified) | · | 10.4% | -9.8% | · | · | 1.0% | -20.2% | ·
COC(=O)[C@H](Cc1ccccc1)NC(=O)O[C@H]1C(=O)c2ccc(OC)cc2O[C@@H]1c1ccc2c(c1)OCO2 | -16.4%[14.2 µM] | -16.1% | -5.8% | ? | -2.6%&-9.2% | -20.1% | 0.0% | 9.2%
CC(OC(=O)/C(C#N)=C/c1ccc(N(C)C)cc1)C(=O)N(C)c1ccccc1 (stereo unspecified) | ? | · | 11.2% | · | · | -9.4% | 11.8% | -14.4%
COc1cccc(C(=O)N2CCN(C3CCN(Cc4ccccc4)CC3)CC2)c1OC | -12.5% | -3.6% | 7.0% | · | · | -0.8% | 10.3% | -1.2%
OCCNCc1ccc(OCc2ccc(Cl)cc2Cl)cc1 | ? | -3.9% | -8.6% | · | · | -1.8% | 12.3% | -12.9%
NC(=O)c1ccc(NC(=O)CN2C(=O)NC(c3ccccc3)(c3ccccc3)C2=O)cc1 | · | -8.4% | 1.0% | · | · | 0.5% | -26.3% | ·
CCc1ccccc1NC(=O)C1CCCN(S(=O)(=O)c2ccc3c(c2)CC(C)N3C(C)=O)C1 (stereo unspecified) | · | 7.4% | 21.5% | · | · | 3.3% | 2.0% | ·
Cc1nn(C)c(C)c1NC(=O)CC12CC3CC(CC(C3)C1)C2 | · | 2.1% | -1.5% | · | · | 0.0% | -22.6% | ·
CC(C)=C1C(=O)NN(c2ccc(C)c(Cl)c2)C1=O | -6.2% | 24.9% | 8.9% | -16.8% | -2.8% | 17.7% | -17.2% | -1.4%
COc1ccc(-c2cc(=O)oc3c(C)c(O)ccc23)cc1 | · | 3.6% | 1.4% | · | · | -0.7% | -23.0% | ·
O=C(NCc1ccccc1Cl)c1cnccc1C(F)(F)F | -19.4% | -0.6% | 0.9% | · | · | -0.6% | 0.5% | 0.2%
CCOC(=O)c1c(C)oc2ccc(OS(C)(=O)=O)cc12 | · | -9.0% | -1.2% | · | · | -1.8% | 1.7% | ·
CC(=O)N(CCc1ccccc1)Cc1cc2cc(C)ccc2[nH]c1=O | · | 11.0% | -18.3% | · | · | 1.3% | -8.9% | ·
CCSc1nnc(N2C(=O)CC(c3ccsc3)C3=C2CC(C)(C)CC3=O)s1 (stereo unspecified) | · | -50.5% | 1.8% | -2.5% | 0.8% | -5.8% | -13.3% | ·
O=C1CN(C(=O)CC2C(=O)NCCN2Cc2ccccc2C(F)(F)F)CCN1 (stereo unspecified) | 14.8% | 4.5% | -17.8% | · | · | 1.5% | -17.8% | 9.4%
Cc1[nH]c(=O)[nH]c(=O)c1S(=O)(=O)N1CCCC(C(=O)N2CCN(c3cccc(C(F)(F)F)c3)CC2)C1 (stereo unspecified) | ? | · | 24.3% | · | · | -3.4% | -4.1% | -6.6%
C/C(=N\NC(=O)COc1ccc(C#N)cc1)c1ccc(N2CCOCC2)cc1 | -25.9% | 19.5% | 10.7% | 1.8% | -6.1% | -13.2% | -20.9% | -10.1%
CCOC(=O)c1cc(-c2ccc(OC)cc2)n(CCC(=O)NCc2ccc(OC)cc2)c1C | · | · | · | 7.1% | -1.7% | · | -2.0% | -22.9%[46.1 µM]
CCOc1cc(/C=C(\C#N)C(=O)Nc2cccc(C(=O)O)c2)ccc1OCc1ccc(Br)cc1 | -7.7%[46.1 µM] | -9.4% | 4.0% | · | · | 1.0% | -12.0% | -13.5%[46.1 µM]
CC(=O)Nc1ccc(S(=O)(=O)Nc2nc3nc(-c4ccccc4)cc(-c4ccccc4)n3n2)cc1 | · | 5.6% | 11.3% | · | · | -0.5% | 3.7% | ·
CCC(=O)Nc1cccc(NC(=O)CSc2nnnn2C2CCCC2)c1 | ? | ? | 2.1% | 11.2% | 1.0% | ? | · | -18.7%
COc1ccc(Cl)cc1NS(=O)(=O)c1cc(Br)cnc1N | ? | -9.9% | -1.0% | · | · | -5.1% | 31.9%[activator] | ?
Cc1ccccc1-c1nc(CS(=O)(=O)CC(=O)N2CCN(C)CC2)c(C)o1 | -8.3%[46.1 µM] | -1.4% | -4.8% | · | · | 0.4% | -5.9% | 3.8%[46.1 µM]
Cc1cc(=O)n2[nH]c(SCc3ccc(Cl)cc3)nc2n1 | ? | 2.1% | -22.0% | · | · | -1.2% | 0.0% | 1.5%
O=C(COc1cccnc1[N+](=O)[O-])Nc1cccc2ccccc12 | -25.9% | · | -6.9% | · | · | -5.3% | -19.3% | -19.1%
COc1cccc(N2CCN(C(=O)c3cnc4c(-c5ccc(F)cc5)c(C)nn4c3C)CC2)c1 | · | · | · | ? | -8.8% | · | -12.7% | 3.7%[46.1 µM]
COc1ccc(C2(C(=O)Nc3ccc(C(=O)O)cc3)CCOCC2)cc1 | -6.1% | -0.5% | -3.0% | -7.4% | -4.4% | -0.9% | -14.8% | -3.9%
CCOC(=O)C(=Cc1ccc(-n2cncn2)cc1)C(=O)OCC | ? | -1.1% | -19.2% | · | · | -14.1% | 28.2µM* | 11.2µM*
